Bioassay records (PubChem)
D2 ag: Beta-Arrestin HTS for Positive Allosteric Modulators of the Human D2 Dopamine Receptor: Agonists | activation, % (no concentration beside the values) | D(2) dopamine receptor (Homo sapiens), P14416 | DiscoveRx PathHunter D2 beta-arrestin, luminescence, 90 min; 100% = 57 uM dopamine signal | actives 0.084% (n = 360,000); in the data active = activation above about 40%; inconclusive = about 15% to 40%; inactive = below about 15%; note: compound concentration not given in the record; the text of the record calls up to 30% inactive
Target sequence (P14416 whole entry, looked up): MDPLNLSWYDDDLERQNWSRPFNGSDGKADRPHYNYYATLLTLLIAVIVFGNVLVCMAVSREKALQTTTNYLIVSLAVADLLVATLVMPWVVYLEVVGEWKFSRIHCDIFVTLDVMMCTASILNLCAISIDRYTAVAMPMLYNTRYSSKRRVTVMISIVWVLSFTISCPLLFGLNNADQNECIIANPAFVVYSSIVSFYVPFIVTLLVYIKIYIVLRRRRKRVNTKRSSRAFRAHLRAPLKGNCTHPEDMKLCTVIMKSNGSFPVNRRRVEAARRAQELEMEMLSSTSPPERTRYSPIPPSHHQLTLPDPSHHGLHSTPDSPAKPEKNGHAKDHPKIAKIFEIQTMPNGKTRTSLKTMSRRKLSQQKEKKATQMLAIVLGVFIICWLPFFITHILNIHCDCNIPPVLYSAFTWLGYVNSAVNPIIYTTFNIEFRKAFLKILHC
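DiscoveRx PathHunter D2 beta-arrestin cells (2,100/well) attached overnight, then compound-stimulated 90 min at 37 C in HBSS/10 mM HEPES/0.1% Tween-20 buffer; beta-galactosidase complementation read by luminescence after 1 h at ambient temperature. Dopamine 57 uM final (EC100) as control.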
Sfp PPTase inh: qHTS Assay for Inhibitors of Bacillus subtilis Sfp phosphopantetheinyl transferase (PPTase). 4'-phosphopantetheinyl transferase ffp (Bacillus subtilis), Q9F4F7. Biochemical Sfp PPTase activity, qHTS. Potency, µM, without a hit: max response, negative = inhibition, most hits filed as inhibitors. actives 3.5% (n = 310,000); active = well fitted inhibition curve with a large enough effect; inconclusive = small, poorly fitted or top-dose-only effect, or another doubt; inactive = no such curve, though single readings can be large or run the other way;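 note: the enzyme is Sfp with the accession as filed and its product quenches rhodamine fluorescence; potency is the fitted concentration of half-maximal effect; 0% = enzyme reaction without inhibitor and -100% = no enzyme wells; top concentration of the series not given in the record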
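Compounds were incubated with enzyme (final 15 nM) for 15 min at room temperature before substrate addition started the reaction. Fluorescence at 525 nm excitation, 598 nm emission was recorded immediately and after 30 minutes.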
D2 potentiator: Beta-Arrestin HTS for Positive Allosteric Modulators of the Human D2 Dopamine Receptor: Potentiators | AID 624464, 2012 | DiscoveRx D2 beta-arrestin cells, luminescence, 90 min; 100% = 57 uM dopamine signal | D(2) dopamine receptor (Homo sapiens), P14416 | actives 0.23% (n = 360,000) | potentiation, % (no concentration beside the values); active = potentiation of 50% or more; inconclusive = 30% to 50%; inactive = 30% or less;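 note: compound concentration not given in the record; tested on top of an EC20 dose of dopamine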
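PathHunter D2 cells, attached overnight at 37 deg C, received compound in DMSO plus dopamine at EC20 (50 nM final) for 90 min at 37 deg C. Beta-arrestin recruitment was read as luminescence after 1 h with detection reagent at ambient temperature.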
CtBP-E1A inh: qHTS Assay for Inhibitors of the CtBP/E1A Interaction | AlphaScreen GST-E1A/His-CtBP binding, 1536-well; hits give low values; control for the full effect not named in the record | actives 0.49% (n = 340,000) | CtBP / adenovirus E1A interaction (AlphaScreen) | activity change, % (test concentration not listed) | AID 651724, 2012; in the data active means activity change below about -65%; inconclusive means about -30% to -65%; inactive means above about -30%; note: % is set by controls: 0 for no effect and ±100 for the full control effect; compound concentration not given in the record
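AlphaScreen with 125 nM GST-E1A and 125 nM His-CtBP (5X stocks) in Tris pH 8.0, 300 mM NaCl, BSA, Tween 20, TCEP. Compounds preincubated 2 h at 37 deg C, then glutathione donor/nickel acceptor beads added for 1 h at 37 deg C in dark.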
TRPV1 potentiator: HTS Assay for Compounds that Act as Potentiators of the Vanilloid Receptor 1; Transient receptor potential cation channel subfamily V member 1 (Homo sapiens), Q8NER1; TRPV1-expressing cells, Fluo-8 calcium influx, capsaicin EC20 potentiation; host cell line not named in the record; control for the full effect not named in the record; potentiation, % at 8.33 µM; actives 0.02% (n = 320,000); active means potentiation above 80%; inconclusive means 30% to 80%; inactive means below 30%; note: 0% is about no effect
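TRPV1-expressing cells were cultured overnight at 35.5C and loaded with Fluo-8 calcium dye for 40 to 90 min at room temperature. After a 10 s baseline, compound was added and calcium influx was read kinetically for 3 min (ex 480/em 520 nm).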
Six1-Eya2 inh: qHTS Assay for Inhibitors of the Six1/Eya2 Interaction | AID 651725, 2012 | actives 0.56% (n = 360,000) | activity change, % (no concentration beside the values) | AlphaScreen GST-Six1/His-Eya2 binding, biochemical; hits give low values; control for the full effect not named in the record; in the data active = activity change below about -65%; inconclusive = about -30% to -65%; inactive = above about -30%; note: % is set by controls: 0 for no effect and ±100 for the full control effect; compound concentration not given in the record
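GST-Six1 + His-Eya2 (5X stock: 250/500 nM); Tris pH 8.0, 300 mM NaCl, 0.05% BSA, 0.02% Tween 20; GSH donor/Ni acceptor beads; 1 h 37 °C dark; AlphaScreen readout.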
PINK1 expr mod: A Quantitative High throughput Screen to Identify Chemical Modulators of PINK1 Expression. PINK1 immunofluorescence, high-content cytometry, 24 h. Potency, µM (highest dose often 76.6 µM), for the others: top-dose activation (PINK1 increase), most hits filed as activators. actives 0.2% (n = 410,000). AID 624263, 2012; active = well fitted activation curve with a large enough effect; inconclusive = small, poorly fitted or top-dose-only effect; inactive = flat fitted curve, though single readings scatter; cell line not stated here;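 note: potency is the fitted concentration of half-maximal effect; % of control where 0% means no effect; nearly all actives have a fitted effect of over 65% in size; a mitochondrial uncoupler was the plate control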
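A stable cell line was treated with compounds at 5 concentrations for 24 hours, with CCCP as control. PINK1 levels and mitochondrial localization were measured by immunofluorescence with mitochondrial, cell and nuclear markers after fixation, read by laser-scanning cytometry.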
* marks the source's active call; other numbers are inactive results; ? = inconclusive; . = no result given; & = joins results of further samples; [ ] = remark or other dose.

canonical_smiles | Six1-Eya2 inh | D2 potentiator | D2 ag | PINK1 expr mod | CtBP-E1A inh | Sfp PPTase inh | TRPV1 potentiator
COc1ccc(/C=C/C(=O)c2ccccc2)c(OC)c1 | 4.2 | 1.6 | -7.5 | 0.5% | 0.5 | -16.8% | -8.4
CC(C)CN(C(=O)CSc1nc2ccccc2[nH]1)c1c(N)n(Cc2ccccc2)c(=O)[nH]c1=O | 4.8 | 0.8 | -2.9 | 0.2% | -20.5 | . | .
Cc1cc(=O)n2nc(N3CCCC3C(=O)Nc3ccccc3C)sc2n1 (stereo unspecified) | -6.9 | -15.4 | -0.4 | -0.5% | -12.7 | 10.7% | -17.9
O=C(NCCN1CCc2ccccc2C1)C1CC(=O)N(C2CCCC2)C1 (stereo unspecified) | -0.8 | -28.0 | -1.7 | 5.9%[38.3 µM] | 8.1 | 6.1% | 1.0
COc1ccc(S(=O)(=O)NCC2CCCN(Cc3ccccc3Cl)C2)cc1 (stereo unspecified) | -10.6 | -26.9 | -3.1 | 1.5% | -13.2 | 6.6% | 4.1
COc1ccc2c(C)c(CCC(=O)NCCCN3CCCC3=O)c(=O)oc2c1C | -1.2 | -6.2 | -3.3 | 0.3% | -1.3 | 12.8% | 11.5
Cc1ccc(S(=O)(=O)/N=S(/C)c2ccccc2)cc1 (stereo unspecified) | -1.9 | -19.6 | -0.8 | -3.2% | 16.6 | 13.3% | 14.2
Cc1nnc(NC(=O)C2CCCN(S(=O)(=O)Cc3ccccc3)C2)s1 (stereo unspecified) | 2.6 | -7.6 | -2.4 | -1.3% | 2.5 | 8.7% | 3.6
O=C(Nc1nc(-c2ccc(Cl)cc2Cl)cs1)C1CCCO1 (stereo unspecified) | 10.6 | 5.7 | -0.7 | ? | 3.6 | -1.1% | -13.5
Cc1nc(C(C)NC(=O)CCc2nnc(Cc3c[nH]c4ccccc34)o2)cs1 (stereo unspecified) | 8.3 | -2.9 | 1.5 | -0.2% | 4.9 | -7.7% | -10.2
CC(C)(C)NC(=O)c1cccc2c1OC(C)(C)C2 | 5.0 | -4.0 | 3.1 | 1.8% | 14.5 | 11.4% | -9.9
CC(NC(=O)c1ccccc1F)c1ccccc1 (stereo unspecified) | 10.7 | -2.2 | -9.4 | 0.6% | -0.4 | 13.7% | -6.2
CCCc1cc(N2CCOCC2)n2nc(C)c(-c3ccccc3)c2n1 | -4.2 | -10.1 | -4.0 | -2.6% | -11.3 | -4.0% | 3.1
O=C(Cc1n[nH]c(=O)c2ccccc12)OCC(=O)c1ccccc1 | 6.5 | -6.7 | -5.6 | 3.4% | . | . | -8.3
C=CCNC(=O)c1ccc(C(=O)c2ccccc2)cc1 | 1.9 | -3.1 | -1.5 | 1.5% | 5.4 | -15.6% | -39.1
CCCOc1cc(C)c(S(=O)(=O)n2ccc(C)n2)cc1C | 27.8 | -0.9 | 1.6 | 0.9% | 8.4 | -2.4% | -6.1
CN1CCN(c2ccc(CNC(=O)C3Cc4c(-c5ccccc5Oc5ccccc5)ccnc4O3)cc2)CC1 (stereo unspecified) | ? | -12.9 | -6.5 | 1.2% | -22.5 | . | .
CC1=NOC(=O)/C1=C\c1ccccc1 | 3.0 | -4.2 | -1.2 | 1.3% | -2.8 | -4.1% | -0.1
COC(=O)c1ccc2nc(-c3ccco3)c(Cc3cccc(Cl)c3)n2c1 | 6.9 | . | . | 2.3% | 4.0 | . | .
CCOC(=O)C1C(c2ccc(C)o2)NC(=O)NC1(O)C(F)(F)F (stereo unspecified) | 0.5 | -8.5 | -2.4 | 3.3% | 5.1 | 10.0% | 6.1

canonical_smiles | Six1-Eya2 inh | D2 potentiator | D2 ag | PINK1 expr mod | CtBP-E1A inh | Sfp PPTase inh | TRPV1 potentiator
CCC(C(=O)NC1CCCCC1)n1c(SCc2ccc(F)cc2)nc2ccncc21 (stereo unspecified) | -0.2 | -1.6 | 3.8 | 3.8%&3.9% | -9.1 | 8.1% | -0.2&2.9
COc1cc(C(=O)N/N=C/c2cccc(Oc3ccccc3)c2)ccc1O | -13.3 | 1.7 | -1.1 | 3.9% | -19.6 | 2.6% | 0.1
CS(=O)(=O)N1CCC(C(=O)Nc2ccc(Br)cc2F)CC1 | 5.9 | -11.1 | 1.9 | . | 11.0 | 15.7% | -11.0
C=CCN1C(=O)C(C)S/C1=N\S(=O)(=O)c1ccc(Cl)cc1 (stereo unspecified) | 15.0 | -11.7 | -2.4 | -1.5% | 17.0 | -15.2% | 15.9
CCOc1ccccc1NC(=O)Cn1nnc(C(=O)NCCc2ccc(OCC)c(OCC)c2)c1N | -7.6 | -7.1 | 5.1 | 6.9% | -9.9 | 9.0% | -12.2
CC(C)N1CCN(c2ccc(OCC3COC(Cn4cncn4)(c4ccc(Cl)cc4Cl)O3)cc2)CC1 (stereo unspecified) | -20.0 | -6.2 | 0.5 | -4.9% | -9.1 | . | .
O=C(NC1CCCC1)C1c2ccccc2OCC(=O)N1C1CC1 (stereo unspecified) | 3.6 | . | . | 0.8% | 4.3 | . | .
Cc1cnc(CNC(=O)c2csc([C@@H]3C[C@H](O)[C@@H](CO)O3)n2)cn1 | -4.2 | -7.4 | -1.5 | 0.4% | 4.4 | . | .
Cc1cc(NC(=O)CSCC(=O)Nc2nc3ccc(F)cc3s2)no1 | -1.6 | -3.9 | 2.6 | 2.0% | -6.1 | . | -10.2
CNC(=O)c1csc(-c2ccc(C)cc2)n1 | -0.5 | -15.0 | -3.9 | 6.5%[38.3 µM] | -2.7 | 14.4% | -15.5
CC(C)C(C)NC(=O)COc1ccc(S(=O)(=O)N2CCOCC2)cc1[N+](=O)[O-] (stereo unspecified) | -5.7 | 6.3 | -1.9 | 1.0% | -7.7 | 9.5% | -1.6
COc1ccccc1Oc1ccc(N/C=C/C(=O)c2ccc(C)o2)cc1 | -11.8 | -6.3 | 7.2 | 2.6% | 2.9 | 6.5% | -5.6
COc1ccc(NC(=O)N[C@@H](CCSC)C(=O)O)cc1Cl | 6.3 | -17.7 | -2.8 | 0.4% | 6.5 | 6.6% | -3.8
COc1ccccc1C(=O)Nc1ccc2c(c1)nc1n2CCN(Cc2ccccc2)C1 | -24.2 | -2.9 | -10.4 | 1.8% | -13.5 | -6.9% | -4.3
O=C(CN1CCN(S(=O)(=O)c2ccc(F)c(Cl)c2)CC1)N1CCNC1=O | 1.8 | -2.7 | -1.2 | -1.5% | -0.4 | . | -1.2
CCOc1ccc([C@@H]2CC=C(C(=O)O)[C@H](c3ccc(F)cc3)N2S(=O)(=O)c2ccc(C)cc2)cc1 | -4.2 | -6.9 | -1.3 | 2.1% | . | . | ?
Cc1ccc(OCC(O)CN2CCc3ccccc3C2)c(C)c1 (stereo unspecified) | -1.1 | -20.0 | -5.3 | 5.1% | . | 4.4% | ?
O=C(NCCCc1ccccc1)c1cc(COc2ccc(F)cc2Cl)on1 | 10.2 | -14.1 | -1.1 | 1.1% | 20.3 | 11.5% | 7.9
CCCOc1ccc(C(=O)C(CCC(CNCC)C(=O)c2ccc(OCCC)cc2)CNCC)cc1 (stereo unspecified) | -3.6 | -2.8 | 1.8 | -0.7% | -9.1 | ? | 5.9
O=C(NC1CCOCC1)C1CCC(=O)N(CCc2cccc(F)c2)C1 (stereo unspecified) | 0.9 | 13.6 | -1.5 | 2.6% | 0.7 | 9.7% | -6.8

Next part, overlapping the part above by three compounds.
canonical_smiles | Six1-Eya2 inh | D2 potentiator | D2 ag | PINK1 expr mod | CtBP-E1A inh | Sfp PPTase inh | TRPV1 potentiator
O=C(NCCCc1ccccc1)c1cc(COc2ccc(F)cc2Cl)on1 | 10.2 | -14.1 | -1.1 | 1.1% | 20.3 | 11.5% | 7.9
CCCOc1ccc(C(=O)C(CCC(CNCC)C(=O)c2ccc(OCCC)cc2)CNCC)cc1 (stereo unspecified) | -3.6 | -2.8 | 1.8 | -0.7% | -9.1 | ? | 5.9
O=C(NC1CCOCC1)C1CCC(=O)N(CCc2cccc(F)c2)C1 (stereo unspecified) | 0.9 | 13.6 | -1.5 | 2.6% | 0.7 | 9.7% | -6.8
CCOC(=O)c1c(C)oc2ccc(NS(=O)(=O)c3cccs3)cc12 | -1.0 | -2.1 | -0.2 | 6.5%[38.3 µM] | 0.5 | ? | 14.0
CCOC(=O)c1ccc2c(c1)nc(SC(C)C(=O)NCC1CCCO1)n2CC (stereo unspecified) | -5.1 | -2.8 | -3.4 | -0.3% | . | . | -4.9
O=c1c2c(nc3nc(COc4ccccc4)[nH]n13)CCC2 | 0.0 | 4.8 | 1.1 | 0.3% | 2.5 | 18.6% | 20.2
CCOc1ccccc1N(CC(=O)NCCSc1ccccn1)S(=O)(=O)c1ccc(C)cc1 | -1.7 | -2.5 | 0.8 | -0.6% | -2.0 | 12.5% | -4.8
COC(=O)c1ccc(C)c(NC(=O)CCCN2C(=O)CN(C)C2=O)c1 | -1.3 | -8.5 | 1.4 | 1.9% | 10.1 | . | .
Cc1ccc(C(=O)N2N=C3c4ccccc4S(=O)(=O)N3[C@H]2N(C)C)cc1 | 4.7 | -36.0 | -6.3 | -0.2% | . | 15.1% | -2.6
COC(=O)c1ccc2nc(-c3ccco3)c(Cc3cccc(F)c3)n2c1 | -12.3 | -9.9 | -7.1 | 1.2% | 1.0 | . | .
CC(=O)NNc1ncnc2c1cnn2-c1ccc(C)c(Cl)c1 | -1.8 | 1.2 | -4.4 | 5.9% | 0.0 | 26.6% | -0.7
Brc1cc2[nH]cnc2c2ccccc12 | -3.0 | 19.4 | 4.8 | -1.6%[38.3 µM] | -3.5 | ? | -11.1
N#Cc1c(SCC(=O)Nc2cccc(F)c2)sc2c(O)cc(=O)[nH]c12 | -13.3 | -1.7 | -1.3 | 0.2% | 22.7 | 56.2µM* | 4.0
